# Screening results from PubChem BioAssay.
# ClpP mod – qHTS Assay for Activators of ClpP. hit rate 1.9% among 340,000. Potency, µM (highest dose often 57.5 µM), for inactives: at the highest dose activity change, negative = active. AID 651965, 2013. purified B. subtilis ClpP, FRET peptide cleavage, 20 min; active = well fitted falling curve with a large enough effect; inconclusive = small, poorly fitted or top-dose-only effect; inactive = no such curve, though single readings can be large or run the other way; also: potency is read from the fitted curve at half-maximal effect; the source files actives as falling curves though it sought activators and does not explain the sign; nearly all actives have a fitted effect of over 65% in size; many hits overshoot -100%
# Target sequence (P80244 whole entry, looked up): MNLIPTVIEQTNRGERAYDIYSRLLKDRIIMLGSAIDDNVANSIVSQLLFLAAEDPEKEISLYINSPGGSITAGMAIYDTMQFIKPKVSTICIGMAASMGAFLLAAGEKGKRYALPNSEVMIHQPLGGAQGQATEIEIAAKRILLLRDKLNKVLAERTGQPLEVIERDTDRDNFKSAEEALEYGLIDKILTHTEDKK
#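 ClpP 10 microg/mL final, pH 8 Tris/KCl buffer with BSA, glycerol, Tween-20; compound pinned in; FRET-FV substrate; RT 20 min; Ex320/Em430; ΔFRET vs ADEP 5.8 microM, DMSO, no enzyme.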
# gsp agonist – activates gsp, the McCune-Albright syndrome mutation; gsp mutant cells, cAMP HTRF, 30 min; control for the full effect not named in the record; Potency, µM (top dose mostly 76.9 µM), inactives show top-dose activation (cAMP increase), most hits filed as activators; hit rate 0.13% among 340,000; active = well fitted activation curve with a large enough effect; inconclusive = small, poorly fitted or top-dose-only effect, or another doubt; inactive = no such curve, though single readings can be large or run the other way; cell line not stated here;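 also: phosphodiesterase inhibitor Ro 20-1724 added with compounds to block cAMP breakdown; potency is read from the fitted curve at half-maximal effect; nearly all actives have a fitted effect of over 60% in size; about a fifth of the inactives were tested at one dose only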
#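 Cells in DMEM/10% FBS with G418 were pretreated with compounds in DMSO plus […] (300 uM stock) for 30 min at 37C. cAMP was measured by HTRF (cAMP-d2 plus anti-cAMP antibody-K) after 30 min at room temperature.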
# Menin MLL FP FL – inhibitors of human menin-MLL interaction, wild-type MLL peptide; Fluorescence polarization, fluorescein-MLL peptide displacement from menin; FP activity change, % at 61.4 µM; 290,000 tested, under 10 active; AID 1766; inconclusive = falling polarisation curve, or a change in total fluorescence; inactive = total fluorescence flat and polarisation flat or rising; no compound was filed as active; the % refers to the polarisation; negative = inhibition;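 also: % of control where 0% means no effect; inhibitors lower the polarisation; unlabelled MLL peptide was the positive control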
# Sfp PPTase inh – blocks B. subtilis Sfp PPTase activity. Potency, µM, for the others: max response, negative = inhibition, actives largely listed as inhibitors. hit rate 3.5% among 310,000. AID 1490. Biochemical Sfp PPTase activity, qHTS; active = well fitted inhibition curve with a large enough effect; inconclusive = small, poorly fitted or top-dose-only effect, or another doubt; inactive = no such curve, though single readings can be large or run the other way;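 also: the enzyme is Sfp with the accession as filed and its product quenches rhodamine fluorescence; potency is read from the fitted curve at half-maximal effect; 0% = enzyme reaction without inhibitor and -100% = no enzyme wells; top concentration of the series not given in the record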
#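 Compounds were incubated with enzyme (final 15 nM) for 15 min at room temperature before substrate addition started the reaction. Fluorescence at 525 nm excitation, 598 nm emission was recorded immediately and after 30 minutes.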
# D2 potentiator – human D2 receptor positive allosteric modulation; DiscoveRx D2 beta-arrestin cells, luminescence, 90 min; 100% = 57 uM dopamine signal; potentiation, % (concentration not given with the values); hit rate 0.23% among 360,000; active = potentiation of 50% or more; inconclusive = 30% to 50%; inactive = 30% or less;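 also: compound concentration not given in the record; tested on top of an EC20 dose of dopamine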
#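 D2 cells co-treated with compound plus 50 nM dopamine (EC20) for 90 min at 37 deg C to detect potentiation. Beta-arrestin recruitment was read as enzyme-fragment luminescence after 1 h at ambient temperature. Full response was set by 57 uM dopamine.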
# gsp antagonist – gsp mutant antagonism | Potency, µM (titrated, usually from 76.9 µM), without a hit: top-dose activity change, negative = inhibition, actives largely listed as inhibitors | AID 624288 | gsp-mutant cells, cAMP HTRF, 30 min; control for the full effect not named in the record | hit rate 0.4% among 340,000; active = falling curve of any shape with a large fitted effect; inconclusive = falling curve, mostly with a smaller effect; inactive = flat or rising curve; cell line not stated here;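 also: intracellular cAMP measured with PDE inhibitor Ro 20-1724 present during compound exposure; potency is read from the fitted curve at half-maximal effect; % is scaled to controls: 0 for no effect and ±100 for the full control effect; nearly all actives have a fitted effect of over 65% in size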
#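 Cells in G418 medium, seeded 16-24 h, 37C; buffer exchange to DPBS + 1 mM CaCl2, 0.5 mM MgCl2, 0.05% BSA; cpds in DMSO + […] (300 uM stock), 30 min 37C; HTRF cAMP detection.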
# TRPV1 PAM – enhances activation of the human vanilloid receptor TRPV1; hit rate 0.02% among 320,000; potentiation, % at 8.33 µM; TRPV1-expressing cells, Fluo-8 calcium influx, capsaicin EC20 potentiation; host cell line not named in the record; control for the full effect not named in the record; AID 540277; Q8NER1; active means potentiation above 80%; inconclusive means 30% to 80%; inactive means below 30%; also: 0% is about no effect
# Target sequence (Q8NER1 whole entry, looked up): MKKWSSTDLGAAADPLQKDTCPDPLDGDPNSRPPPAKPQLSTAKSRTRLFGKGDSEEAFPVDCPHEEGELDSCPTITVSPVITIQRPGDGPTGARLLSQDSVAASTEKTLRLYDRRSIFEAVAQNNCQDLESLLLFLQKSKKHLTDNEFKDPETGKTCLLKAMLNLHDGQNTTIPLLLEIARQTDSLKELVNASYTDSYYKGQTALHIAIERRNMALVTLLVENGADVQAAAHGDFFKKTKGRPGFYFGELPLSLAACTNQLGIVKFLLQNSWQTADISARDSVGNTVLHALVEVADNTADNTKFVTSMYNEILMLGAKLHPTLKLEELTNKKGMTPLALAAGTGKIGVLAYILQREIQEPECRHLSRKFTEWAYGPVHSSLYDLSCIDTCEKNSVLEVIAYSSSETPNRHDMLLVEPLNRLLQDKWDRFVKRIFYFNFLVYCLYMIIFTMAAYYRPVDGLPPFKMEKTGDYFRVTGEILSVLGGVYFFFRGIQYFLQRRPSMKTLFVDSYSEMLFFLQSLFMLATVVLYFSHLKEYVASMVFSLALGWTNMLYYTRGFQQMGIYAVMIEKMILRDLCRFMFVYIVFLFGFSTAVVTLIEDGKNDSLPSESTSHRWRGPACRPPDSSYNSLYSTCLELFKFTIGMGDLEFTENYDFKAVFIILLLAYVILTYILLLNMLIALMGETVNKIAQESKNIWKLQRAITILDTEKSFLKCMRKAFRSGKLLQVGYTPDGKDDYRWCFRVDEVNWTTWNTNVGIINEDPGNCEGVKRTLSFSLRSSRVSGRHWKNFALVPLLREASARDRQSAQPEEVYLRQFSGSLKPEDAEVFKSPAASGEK
#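 Fluo-8 calcium influx in TRPV1-expressing cells, kinetic read (ex 480/em 520 nm). Compound added and read 3 min for agonist activity, followed by capsaicin at EC20 final and 2 min further read for enhancement.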
# Numbers without * were called inactive; ? = inconclusive; / = no result given; & = joins results of further samples; [ ] = remark or other dose.
SMILES,ClpP mod,gsp agonist,Menin MLL FP FL,Sfp PPTase inh,D2 potentiator,gsp antagonist,TRPV1 PAM
CCC(C(=O)NCc1ccco1)N(C(=O)CNS(=O)(=O)c1ccc(F)cc1)c1ccccc1F (stereo unspecified),/,-2%[15.4 µM],0.8,3%,-15,/,2
COc1ccc(C(=O)CSc2nnc(CN3CCCC3)n2-c2ccc(F)cc2)c(OC)c1,-1.0%,-33%[inhibitor],7.9,5%,-4,-15%,17
O=C(OCC(=O)N1CCCC1=O)c1ccc(Cl)cc1[N+](=O)[O-],/,-7%[15.4 µM],/,/,2,0%,-18
COc1ccc(NC(=O)C(=O)NCCN2CCN(C(=O)c3ccco3)CC2)cc1,/,-2%[15.4 µM],-3.9,17%,20,15%,0
CN1/C(=C\C(=O)COC(=O)c2nccnc2N)C(C)(C)c2ccccc21,37%,-9%,/,/,-24,-4%,-16
O=C(CSc1ccc(C(F)(F)F)cc1[N+](=O)[O-])N1CCOCC1,-1.5%,-7%[15.4 µM],7.7,0%,-2,1%,-15
CN(Cc1nccs1)C(=O)CC1C(=O)NCCN1Cc1ccc(-c2ccccc2)cc1 (stereo unspecified),-2.5%,-85%[inhibitor],4.8,45µM*,-8,-18%,-9
CC(C)NC(=O)c1ccc2c3n(nc2c1)-c1ccccc1CO3,4.2%,13%,0.9,-14%,-7,?,-24
CCCn1cc(CN2CCC(C(=O)Nc3cccc(-c4cscn4)c3)CC2)c(C)n1,-2.3%,-58%[inhibitor],-9.7,11%,-40,12%,-2
O=C(Nc1ccc2c3c(cccc13)CC2)c1cccc([N+](=O)[O-])c1,1.2%,-16%,1.2,2%,-18,2%,-18
CCCCc1ccc(NS(=O)(=O)c2cccs2)cc1,-0.3%,14%,-5.5,1%,-4,14%,-9
Cc1nnc2ccc(-c3ccc(NS(=O)(=O)c4ccc(F)cc4F)cc3)nn12,-3.0%,11%[15.4 µM],/,/,6,-3%,12
C=CCNC(=O)NC(=O)COC(=O)c1nc2nccc(C)n2n1,/,?,0.3,9%,-5,5%,4
O=C(Nc1ccc2c(c1)OCO2)C1COc2ccccc2O1 (stereo unspecified),-0.5%,29%,-0.1,0%,3,-3%,-27
NC(=O)NC(c1ccc(Cl)cc1)c1ccccc1Cl (stereo unspecified),/,0%,-5.4,18%,-2,-10%,-4
O=C(NCC1CCCO1)c1cc(NS(=O)(=O)c2cccs2)cc(NS(=O)(=O)c2cccs2)c1 (stereo unspecified),0.0%,-14%,-2.2,7%,-3,-11%,21
Cc1ccc(C(=O)c2ccccc2C(=O)OCC(=O)NCCc2ccccc2)cc1,0.6%,-19%,1.7,-16%,-17,-17%,-25
O=C(O)/C=C(/c1ccccc1)C(F)(F)F,2.8%,-9%,/,/,-4,1%,/
CCCNC(=O)CC(NS(=O)(=O)c1ccc(Cl)cc1)c1ccco1 (stereo unspecified),-0.4%,9%,0.3,19%,-7,1%,/
O=C1NC2(CCCCCC2)C(=O)N1Cc1ccc([N+](=O)[O-])cc1,-1.2%,2%,-0.9,14%,-5,6%,-4
CCc1ccc(OCC2NCCc3cc(OC)c(OC)cc32)cc1 (stereo unspecified),0.7%,5%,0.5,4%,-19,3%,-2
NNC(=S)Nc1ccc(S(=O)(=O)N2CCCCC2)cc1,/,2%,-0.3,-7%,-6,-13%,-9
CCC(C)(C)NC(=O)CN(Cc1ccc2c(c1)OCO2)C(=O)CCC(=O)Nc1nccs1,/,-7%,0.5,8%,-7,0%,12
Cc1ccc(CS/C(Nc2ccccc2C)=C(\C#N)C(N)=O)c(C)c1,0.6%,-6%[15.4 µM],3.3,?,-9,-9%,-7
COc1cc(/C=N\NC(=O)c2nonc2N)c(OC)cc1Br,9.7%,-28%,-0.7,4%,-7,3%,-19

# Shown as tab-separated lines: entries from further up
molecule	ClpP mod	gsp agonist	Menin MLL FP FL	Sfp PPTase inh	D2 potentiator	gsp antagonist	TRPV1 PAM
Cc1ccc(C(=O)c2ccccc2C(=O)OCC(=O)NCCc2ccccc2)cc1	0.6%	-19%	1.7	-16%	-17	-17%	-25
O=C(O)/C=C(/c1ccccc1)C(F)(F)F	2.8%	-9%	/	/	-4	1%	/
CCCNC(=O)CC(NS(=O)(=O)c1ccc(Cl)cc1)c1ccco1 (stereo unspecified)	-0.4%	9%	0.3	19%	-7	1%	/

# Next part:
SMILES,ClpP mod,gsp agonist,Menin MLL FP FL,Sfp PPTase inh,D2 potentiator,gsp antagonist,TRPV1 PAM
O=C(Cc1ccc(F)cc1)NCCc1cnc[nH]1,-0.9%,-17%,11,1%,-9,-2%,-14
O=C(c1cccc(NS(=O)(=O)c2ccc(Br)cc2)c1)N1CCCCC1,1.3%,-74%[inhibitor],/,/,16,-1%,3
COc1cc(C2NC(=S)NC(C)=C2C(=O)Nc2ccc(C)cc2)ccc1O (stereo unspecified),/,-5%,4.4,-6%,-3,0%,-22
CN(C)S(=O)(=O)c1ccc(C(=O)NCc2nnc(SCC(=O)NCc3ccco3)o2)cc1,1.7%,-1%,/,4%,7,21%,3
COc1ccccc1NC(=S)NC1CCC(CC2CCC(NC(=S)Nc3ccccc3OC)CC2)CC1 (stereo unspecified),-1.6%,-50%,-2.0,10%,10,-1%,3
O=C(C[C@H]1C[C@H](C(=O)N2CCOCC2)[C@@]2(CCC3CCCC3)c3[nH]c4cc(-c5ccco5)ccc4c3CCN2C1=O)NCCC1=CCCCC1,3.7%,/,/,/,-4,-8%,/
O=[N+]([O-])c1ccc2[nH]c3c(c2c1)CCCC3,0.7%,-24%,-1.0,12%,0,-2%,10
O=C(c1c(F)cccc1F)N(Cc1ccccc1)Cc1ccccc1,/,-1%[15.4 µM],0.7,4%,-8,0%,10
CCCn1c(=O)c(C#N)cn(C2CC2)c1=O,/,8%,-6.5,15%,-31,4%,-13
CCOC(=O)c1cc(S(=O)(=O)NCc2ccc3c(c2)OCO3)cn1C,-0.1%,-33%[inhibitor],-1.1,14%,-4,-1%,6
Cc1nc(Br)c(Br)c(C)c1Br,-0.5%,19%,-3.5,15%,-5,8%,-4
CCCCCc1ccc(-c2cn(CCc3c[nH]c4ccccc34)nn2)cc1,0.4%&-1.6%,/,-1.2,1%,-29,-10%,-4
CCC(CC)NC(=O)Nc1ccc(C)cc1,1.3%,-30%[inhibitor],3.7,3%,-9,-20%,-17
Cc1ccc[n+](CC(=O)N2CCCc3ccccc32)c1,-2.4%,-20%,-6.7,16%,-12,-8%,-6
CCCCc1ccc(S(=O)(=O)NCCc2ccncc2)cc1,14%,3%,-4.8,6%,-5,-2%,7
CCOC(=O)c1c(NC(=O)c2cccnc2)sc(C(C)=O)c1C,-3.0%,16%,2.1,15%,0,6%,14
CCc1nn(CCCC(=O)NCc2ccco2)c(=O)c2cc3occc3n12,-2.0%,55%,3.4,9%,-6,-2%,8
Cc1cccc(CSCCNC(=O)COc2ccc(Cl)cc2)c1,-0.3%,-70%[inhibitor],3.5,6%,-6,-2%,4
CCOc1ccc(NC(=O)c2ccc(F)c(S(=O)(=O)N3CCN(c4ccccn4)CC3)c2)cc1,-11%,-10%,2.9,14%,-7,?,3
COCCn1c(NCc2ccccc2)nc2c1c(=O)[nH]c(=O)n2C,2.1%,4%,-0.9,22%,-3,4%,2
Cc1ccccc1N(C(=O)c1snc(C(N)=O)c1N)C(C(=O)NC1CCCCC1)c1ccc(O)cc1 (stereo unspecified),/,25%,-1.2,12%,-8,-37%,5
C[C@H](O)[C@@]1(O)CC[C@H]2[C@@H]3CC[C@@H]4C[C@H](O)CC[C@]4(C)[C@H]3CC[C@@]21C,0.8%,/,/,/,-21,0%,/
CCCCCC(=O)N1C[C@H](O)[C@@H](n2cc(COC(=O)c3ccccc3)nn2)C[C@@H]1c1ccc(C)cc1,1.3%,-53%,/,/,-2,/,/
CC1(C)CC(=O)C2=C(C1)c1c(ccc3ccccc13)NC2c1cc([N+](=O)[O-])cc([N+](=O)[O-])c1O (stereo unspecified),/,-10%[15.4 µM],1.3,4µM*,-15,32µM*,6
O=C(c1ccccc1CCc1ccccc1)N1CCCC1,-0.4%,-1%,0.0,4%,0,-4%,-10

# (cont.)
SMILES,ClpP mod,gsp agonist,Menin MLL FP FL,Sfp PPTase inh,D2 potentiator,gsp antagonist,TRPV1 PAM
C[n+]1ccc(C(=O)NCc2ccccc2)cc1,-0.9%,-15%,-3.5,-12%,7,7%,-1
CCCc1cc(C(=O)Nc2ccc(F)cc2F)no1,0.1%,-4%,-2.6,0%,-8,8%,14
O=C(O)[C@H](Cc1c[nH]c2ccccc12)Nc1ncccc1[N+](=O)[O-],1.5%,-22%,0.0,7%,-15,-5%,0
Cc1ccc(OCC(=O)N(C)CC(=O)Nc2ccc(Cl)c(C(F)(F)F)c2)c([N+](=O)[O-])n1,-1.6%,-46%[inhibitor],/,/,-7,-10%,6
CSc1cccc(CN2CCN(CCc3ccccc3)C(CCO)C2)c1 (stereo unspecified),1.4%,4%,0.4,8%,-42,6%,-10
Cc1cccc2cc(C#N)c(N3CCC(O)CC3)nc12,-21%,-14%,-4.0,7%,-4,7%,12
O=C(CN1C2CCC1CC(NC(=O)NC1CCCCC1)C2)NC1CC1 (stereo unspecified),1.1%,8%,1.7,10%,-12,9%,-6
Cc1cccc(-n2nc([N+](=O)[O-])c(=NCc3cccnc3)n2O)c1,0.7%,-22%,2.9,15%,68*,-4%,4
Cc1nc(SCc2ccccc2)nc2c1CCC2,/,0%[15.4 µM],-1.2,?,-1,-8%,-5
CCOc1ccccc1NC(=O)N1CCCN(c2ncccc2C#N)CC1,-28%,-5%,-4.8,15%,-10,-4%,-6
CC(C)c1cccc(C(C)C)c1OCCCCCN1CCOCC1,-0.4%,-23%,/,/,-30,14%,/
CC1(C)Cc2c(sc(NC(=O)C(=O)NCCCN3CCOCC3)c2C#N)CO1,?,38%,/,16µM*,-9,0%,-12
Cc1[nH]c2ccccc2c1SCCN,-6.3%,-35%[inhibitor],/,/,-14,6%,/
Cc1ccc(NC(=O)CC2Nc3ccccc3NC2=O)cc1Cl (stereo unspecified),-24%,24%,17,-7%,-12,-11%,3
COc1ccc(N2C(=O)CC(Nc3cccc([N+](=O)[O-])c3)C2=O)cc1 (stereo unspecified),1.3%,2%,-5.5,8%,-12,-2%,-18
